Marburg entry inh: inhibitors of Marburg virus binding or cell entry. Marburg virus pseudotyped entry inhibition, cell reporter; control for the full effect not named in the record; about a third of the inactives were read at about 46 µM. Potency, µM (highest dose often 37.8 µM), inactives show at the highest dose activity change, negative = inhibition, actives largely listed as inhibitors. actives 1.8% (n = 300,000). AID 540276; active = well fitted inhibition curve with a large enough effect; inconclusive = small, poorly fitted or top-dose-only effect, or effect the other way; inactive = flat fitted curve, though single readings scatter; tested in HEK293 cells; about a fifth of its hits are not listed in these tables; note: % is set by controls: 0 for no effect and ±100 for the full control effect; luciferase read-out
RE007 growth inh: less growth of the S. pombe RE007 Vpr strain; S. pombe RE007 Vpr strain, BacTiter-Glo ATP luminescence, 24 h; control for the full effect not named in the record; Potency, µM (series often up to 92.2 µM), inactives show at the top dose activity change, negative = less growth; actives 0.21% (n = 360,000); AID 651644; active = well fitted falling curve with a large enough effect; inconclusive = small, poorly fitted or top-dose-only effect; inactive = no such curve, though single readings can be large or run the other way;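 note: % is set by controls: 0 for no effect and ±100 for the full control effect; nearly all actives have a fitted effect of over 50% in size; the assay follows cell death caused by Vpr and the record does not say whether a fall means rescue or toxicity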
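Fission yeast RE007 carrying one integrated HIV-1 vpr copy, seeded at OD 0.01 in PMG+AL medium with 23 nL pinned compound. Grown 24 h at 30 degrees; viability read by BacTiter-Glo luminescence after 5 min.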
Cruzain noTriton: blocks cruzain activity in detergent-free assay; P25779; purified cruzain, Z-FR-AMC fluorescence, no detergent; Potency, µM, for the others: max response, negative = inhibition, usual class: inhibitors; actives 2.3% (n = 200,000); AID 1476;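 note: plate controls were enzyme without inhibitor for no effect and buffer without enzyme for full effect; nearly all actives have a fitted effect of over 40% in size; top concentration of the series not given in the record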
Target sequence (P25779 123-467 limits assumed): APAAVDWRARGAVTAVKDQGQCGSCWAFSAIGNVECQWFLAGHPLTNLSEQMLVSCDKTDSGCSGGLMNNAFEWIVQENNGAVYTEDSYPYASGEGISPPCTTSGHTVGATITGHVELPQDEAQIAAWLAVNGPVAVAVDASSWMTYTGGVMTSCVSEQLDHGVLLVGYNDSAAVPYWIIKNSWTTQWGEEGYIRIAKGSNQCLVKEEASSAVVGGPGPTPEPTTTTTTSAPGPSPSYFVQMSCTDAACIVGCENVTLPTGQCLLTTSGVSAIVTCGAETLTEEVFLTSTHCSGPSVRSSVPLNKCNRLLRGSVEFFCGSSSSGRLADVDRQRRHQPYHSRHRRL
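Detergent-free condition (0.00005% Triton X-100) in acetate buffer pH 5.5 with DTT. 1.5 nM enzyme and compound were pre-mixed 15 min, then 2 uM Z-FR-AMC substrate added; reaction progress from fluorescence change between first and third reads (60 s).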
NS1 inh: inhibitors of influenza NS1 protein function; Potency, µM (top dose mostly 46.1 µM), for the others: at the highest dose activity, positive = more growth; S. cerevisiae slowed by influenza A NS1, growth recovery by OD600; AID 2326; actives 0.4% (n = 270,000); active means well fitted rising curve with a large enough effect; inconclusive means small, poorly fitted or top-dose-only effect; inactive means no such curve, though single readings can be large or run the other way; note: nearly all actives have a fitted effect of over 50% in size
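OD600 was taken as the measure of yeast growth restored by compound in an NS1-expressing S. cerevisiae strain. Cells had been washed out of glucose medium and diluted 1:100 into galactose -URA medium, pH 6.0.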
2A StopGo: lowers the luciferase signal of an FMDV 2A StopGo reporter; AID 1159524; actives 1.2% (n = 410,000); Potency, µM (highest dose often 57.9 µM), without a hit: at the top dose signal change, negative = less light; human cells with a luciferase reporter of 2A StopGo recoding; control for the full effect not named in the record; active = well fitted falling curve with a large enough effect; inconclusive = small, poorly fitted or top-dose-only effect; inactive = no such curve, though single readings can be large or run the other way; tested in HEK293T cells; note: % is set by controls: 0 for no effect and ±100 for the full control effect; nearly all actives have a fitted effect of over 45% in size; luciferase light after 4 h
LASV entry inh: inhibitors of Lassa virus binding or cell entry; Lassa virus pseudotype entry inhibition, cell reporter; control for the full effect not named in the record; Potency, µM (titrated, usually from 37.9 µM), for the others: at the top dose activity change, negative = inhibition, usual class: inhibitors; actives 1.2% (n = 300,000); AID 540256; active means well fitted inhibition curve with a large enough effect; inconclusive means small, poorly fitted or top-dose-only effect, or effect the other way; inactive means flat fitted curve, though single readings scatter; tested in HEK293 cells; note: % is set by controls: 0 for no effect and ±100 for the full control effect; nearly all actives have a fitted effect of over 50% in size; luciferase read-out
Cruzain inh Det: blocks cruzain activity in presence of Triton detergent; P25779; purified cruzain, Z-FR-AMC fluorescence, 0.01% Triton; Potency, µM, inactives show max response, negative = inhibition, hits mostly inhibitors; actives 0.43% (n = 200,000);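 note: plate controls were neutral wells for no effect and buffer without enzyme for full effect; nearly all actives have a fitted effect of over 40% in size; top concentration of the series not given in the record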
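Read-out: AMC fluorescence (360 nm excitation, 450 nm emission), four reads over 2 min, first-to-third difference used. Conditions: cruzain 1.5 nM, Z-FR-AMC 2 uM, pH 5.5 acetate, 5 mM DTT, 0.01% Triton X-100.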
SARS PLpro yeast: inhibitors of SARS-CoV papain-like protease in yeast | S. cerevisiae expressing SARS-CoV PLpro, growth rescue; control for the full effect not named in the record | Potency, µM (doses to about 32.9 µM), for inactives: top-dose activity, positive = growth rescue | actives 0.19% (n = 330,000); active means well fitted rising curve with a large enough effect; inconclusive means small, poorly fitted or top-dose-only effect; inactive means no such curve, though single readings can be large or run the other way; note: 0% is about no effect; nearly all actives have a fitted effect of over 55% in size; growth read by luminescence after 48 h
* marks the source's active call; other numbers are inactive results; ? = inconclusive; · = no result given; & = joins results of further samples; [ ] = remark or other dose. Unless noted, calls come from the whole dose curve; as a rule, active = well fitted curve in the direction sought with a large enough effect; inconclusive = small, poorly fitted or top-dose-only effect, or another doubt; inactive = no such curve, though single readings can be large; an effect the other way counts as inactive or inconclusive. Potency is the fitted concentration of half-maximal effect.

[1] CN(CCCNC(=O)c1cc2c(Cl)nc3ccccc3c2s1)Cc1ccccc1
[2] Nc1nc(Cl)cc(N2CCCC2)n1
[3] COc1ccc(N(Cc2cc(=O)[nH]c3ccccc23)C(=O)C(C)C)cc1
[4] COc1ccccc1CN1C(=S)SC(C)(C)C1NO (centres undefined)
[5] COc1ccc(NC(=O)COc2cc(C)cc(C)c2)cc1S(=O)(=O)N1CCCCC1
[6] CC(=O)c1ccc(S(=O)(=O)N(C)CC(=O)Nc2cccc(S(=O)(=O)N3CCCC3)c2)cc1
[7] Cc1cccc(NC(=O)/C(=C\c2ccco2)NC(=O)c2ccccc2)c1
[8] Cc1ccccc1COc1ccc(/C=C(\C#N)C(N)=O)cc1

screen / no.	1	2	3	4	5	6	7	8
Marburg entry inh	10µM*	8%[46.1 µM]	·	?	?	1%	8%	0%[46.1 µM]
RE007 growth inh	-26%	3%	-4%	-11%	-15%	-2%	7%[3.69 µM]	4%
Cruzain noTriton	6%	·	·	-1%	·	·	4%	·
NS1 inh	·	-1%	-1%	-37%	·	·	-7%	-4%
2A StopGo	-14%&-18%	-10%	3%	-7%	-29%	-21%	-4%	42%[activator]
LASV entry inh	?	·	·	-8%	?	9%	-20%	?
Cruzain inh Det	-2.6%	·	·	8.1%	·	·	-5.2%	·
SARS PLpro yeast	-3%	0%	1%	-12%	-1%	·	0%	0%

[9] Cc1c(C(=O)Nc2cccc(C(F)(F)F)c2)sc2nc[nH]c(=O)c12
[10] C/C(=N\O)C(=O)NCc1ccncc1
[11] N#Cc1nc(COc2ccc(Cl)cc2)oc1N1CCCC1
[12] COc1ccccc1/C=C/C1(C(=O)NC2CCCC2)CC(=O)N1c1ccc(F)cc1 (centres undefined)
[13] CN1C(=O)CSC1=NCC12CC3CC(CC(C3)C1)C2
[14] Cc1ccccc1N(CC(=O)N1CCCCCC1)S(C)(=O)=O
[15] Cc1nn(CC(=O)NCCc2ccco2)c(=O)c2nn(-c3ccccc3)c(C)c12
[16] CC(=O)N1CCN=C1SCc1cccc(Cl)c1

screen / no.	9	10	11	12	13	14	15	16
Marburg entry inh	·	?	-20%	5.8µM*	-3%	-9%[46.1 µM]	·	·
RE007 growth inh	·	-7%	-19%	4%	8%	8%	-9%	1%
Cruzain noTriton	9%	-2%	-16%	14%	1%	·	·	·
NS1 inh	·	-4%	-28%	-7%	3%	17%	15%	4%
2A StopGo	0%	-1%	-24%	?	·	-9%	-11%	-17%
LASV entry inh	-15%[46.1 µM]	5%	-26%	15µM*	-39%	2%[46.1 µM]	·	·
Cruzain inh Det	-7.7%	3.9%	-7.4%	-5.0%	-7.7%	·	·	·
SARS PLpro yeast	·	1%	-8%	1%	-1%	-6%	2%	0%

[17] COc1ccc(Br)cc1/C=N/NC(=O)c1ccc2nc[nH]c2c1
[18] COc1ccc(C(=O)Nn2cnc3ccccc3c2=O)cc1[N+](=O)[O-]
[19] COc1ccc(CNC(=O)C(=O)NCC2CCCN2S(=O)(=O)c2ccccc2)cc1 (centres undefined)
[20] CCc1ccc(N=C2NC(=O)/C(=C/c3ccc(OCC(=O)O)c(OC)c3)S2)cc1
[21] C=COCCn1c(-c2nonc2N)nc2ccccc21
[22] O=C(COc1ncnc2sccc12)N1CCN(c2ccccc2)CC1
[23] CN(CC1COc2ccccc2O1)C(=S)Nc1ccccc1F (centres undefined)
[24] CCC(NC(=O)Cc1c(C)c2cc3c(cc2oc1=O)OC(C)(C)CC3)C(=O)O (centres undefined)

screen / no.	17	18	19	20	21	22	23	24
Marburg entry inh	·	·	0%[46.1 µM]	·	-28%	·	11%	·
RE007 growth inh	5%	2%	0%	2%	11%	-8%	2%	5%
Cruzain noTriton	·	·	·	·	-4%	·	6%	·
NS1 inh	-6%	0%	·	11µM*	0%	0%	-1%	-1%
2A StopGo	-18%	0%	-28%	-6%	?	4%	19%	50%[activator]
LASV entry inh	·	·	?	·	-5%	·	4%	·
Cruzain inh Det	·	·	·	·	-2.4%	·	-7.9%	·
SARS PLpro yeast	6%	2%	-1%	-1%	?	-2%	-9%	-1%

[25] O=C(CSS(=O)(=O)O)N1CCN(C(=O)c2ccoc2)CC1
[26] Brc1ccc(-c2cn3nc4c(nc3n2)CCCC4)cc1
[27] O=c1c2cnn(-c3ccccc3)c2nc(-c2ccco2)n1-c1ccccc1
[28] COc1ccc(C(=O)O)cc1NC(=S)NC(=O)C(c1ccccc1)c1ccccc1
[29] O=C(Oc1ccccc1C(=O)N1CCOCC1)c1ccc(Br)cc1
[30] COc1ccc(OC)c2[nH]c(=O)c(CCNC(=O)c3ccc(S(=O)(=O)N(C)C)cc3)cc12
[31] Cc1nc2ccccc2c(=O)n1/N=C/c1ccccc1F
[32] O=C(Nc1cc(N2CCOCC2)ncn1)NC1(C(F)(F)F)Oc2ccccc2O1

screen / no.	25	26	27	28	29	30	31	32
Marburg entry inh	8%[46.1 µM]	5µM*	?	?	27%	?	?	?
RE007 growth inh	1%	-7%	-10%	6%	-18%	4%	12%	-15%
Cruzain noTriton	·	?	-22%	·	-7%	16%	·	10%
NS1 inh	8%	-24%	0%	-39%	-1%	-2%	-9%	-7%
2A StopGo	-9%	?	14µM*	-21%	2%	?	29%	-28%
LASV entry inh	0%[46.1 µM]	?	?	26%	30%	-1%	-2%[46.1 µM]	-28%
Cruzain inh Det	·	-2.1%	-13%	·	-2.0%	?	·	2.4%
SARS PLpro yeast	0%	1%	-1%	4%	-3%	0%	4%	7%

Some of the entries so far, with each value named.
[1] CN(CCCNC(=O)c1cc2c(Cl)nc3ccccc3c2s1)Cc1ccccc1
  Marburg entry inh: 10µM*; RE007 growth inh: -26%; Cruzain noTriton: 6%; NS1 inh: ·; 2A StopGo: -14%&-18%; LASV entry inh: ?; Cruzain inh Det: -2.6%; SARS PLpro yeast: -3%
[12] COc1ccccc1/C=C/C1(C(=O)NC2CCCC2)CC(=O)N1c1ccc(F)cc1 (centres undefined)
  Marburg entry inh: 5.8µM*; RE007 growth inh: 4%; Cruzain noTriton: 14%; NS1 inh: -7%; 2A StopGo: ?; LASV entry inh: 15µM*; Cruzain inh Det: -5.0%; SARS PLpro yeast: 1%
[19] COc1ccc(CNC(=O)C(=O)NCC2CCCN2S(=O)(=O)c2ccccc2)cc1 (centres undefined)
  Marburg entry inh: 0%[46.1 µM]; RE007 growth inh: 0%; Cruzain noTriton: ·; NS1 inh: ·; 2A StopGo: -28%; LASV entry inh: ?; Cruzain inh Det: ·; SARS PLpro yeast: -1%
[14] Cc1ccccc1N(CC(=O)N1CCCCCC1)S(C)(=O)=O
  Marburg entry inh: -9%[46.1 µM]; RE007 growth inh: 8%; Cruzain noTriton: ·; NS1 inh: 17%; 2A StopGo: -9%; LASV entry inh: 2%[46.1 µM]; Cruzain inh Det: ·; SARS PLpro yeast: -6%

Remaining list, next part:
[33] c1ccc(-n2c(Cc3cn4ccsc4n3)nnc2N2CCOCC2)cc1
[34] CCCCN1C(=O)C(=O)N(CC(=O)Nc2sc(C)c(CC)c2C(=O)OCC)C1=O
[35] Cc1ccc(N2CCN(C(=O)CNS(=O)(=O)c3ccc(Br)s3)CC2C)cc1 (centres undefined)
[36] CCCCc1ccc(C2C(C#N)=C(N)SC(N)=C2C#N)s1
[37] CCSc1nnc(NC(=O)CSc2nc3c(c(=O)n2-c2ccccc2)SCC3)s1
[38] CC1(C)Cc2ccccc2-c2nnc(-c3ccccc3)n21
[39] CCN(CC)c1ccc(/C=C(\C#N)C(N)=O)cc1
[40] COc1cc(C2C(C#N)=C(N)OC3=C2C(=O)CC(C)(C)C3)c([N+](=O)[O-])cc1OC (centres undefined)

screen / no.	33	34	35	36	37	38	39	40
Marburg entry inh	?	21%[46.1 µM]	?	0%	-3%	?	?	1%
RE007 growth inh	5%	-18%	20%	·	7%	9%[3.69 µM]	22%	-1%
Cruzain noTriton	-3%	·	13%	32µM*	13%	-5%	·	-4%
NS1 inh	-2%	·	-43%	-21%	3%	4%	-11%	-5%
2A StopGo	·	-6%	?	·	3%	-8%	38%[activator]	-2%
LASV entry inh	28%	-11%	?	·	1%	-6%	?	23%
Cruzain inh Det	-4.1%	·	-6.1%	?	-17%	0.7%	·	0.9%
SARS PLpro yeast	7%	-6%	-2%	-1%	-30%	-6%	-2%	5%

[41] COc1ccc(-n2cc(-c3ccccc3)c3c(N4CCOCC4)ncnc32)cc1
[42] CCOc1nonc1C(=N)/C(C(C)=O)=C(\C)O
[43] Nc1c2c(nc3c1CCCC3)CCCC2 (tested in a mixture with another compound)
[44] CCn1c(=O)c(CCC(=O)N2CCOCC2)c(C)c2c(C)nn(-c3ccccc3)c21
[45] Cc1c(-c2ccnc3cc(C(=O)O)nn23)cnn1C
[46] CC1CCCCN1C(=O)c1cc(-c2ccc(Cl)c(Cl)c2)on1 (centres undefined)
[47] O=C(Cc1c(O)c2ccccc2[nH]c1=O)NC1CCCCCC1
[48] CCOc1ccc(CN2CCSCC2)cc1
[49] Cc1ccc(C=Nc2ccccc2C(N)=O)cc1
[50] CCOc1ccc(CCNC(=O)c2cc3n(n2)CCCN(Cc2ccc(C)cc2)C3=O)cc1OCC
[51] Cc1ccc(S(=O)(=O)NCCC(=O)Nc2cccc(Cl)c2)cc1

screen / no.	41	42	43	44	45	46	47	48	49	50	51
Marburg entry inh	?	-1%	-11%[46.1 µM]	·	2%[46.1 µM]	-28%	25%	4%	-13%	·	19%
RE007 growth inh	5%	22%	0%	3%	12%	-10%	-1%	13%	-3%	·	1%
Cruzain noTriton	·	-4%	·	·	·	4%	2%	·	6%	?	-1%
NS1 inh	·	1%	7%	12%	·	-60%	-5%	2%	-59%	·	-16%
2A StopGo	?	-7%	-6%	-21%	-5%	8%	-21%	-9%	46%[activator]	?	25%
LASV entry inh	?	-6%	2%[46.1 µM]	·	11%	-3%	9%	10%	?	4%[46.1 µM]	-8%
Cruzain inh Det	·	0.7%	·	·	·	-7.0%	-2.2%	·	5.9%	0.0%	-2.7%
SARS PLpro yeast	-8%	6%	3%	-2%	-3%	-7%	13%	3%	-6%	·	?

Bioassay records deposited in PubChem by National Center for Advancing Translational Sciences (NCATS).
